Screens deposited in PubChem BioAssay by National Center for Advancing Translational Sciences (NCATS).
PINK1 expr mod – modulators of PINK1 expression; Potency, µM (series often up to 76.6 µM), inactives show at the top dose activation (PINK1 increase), most hits filed as activators; PINK1 immunofluorescence, high-content cytometry, 24 h; AID 624263; 410,000 tested, 0.2% active; active = well fitted activation curve with a large enough effect; inconclusive = small, poorly fitted or top-dose-only effect; inactive = flat fitted curve, though single readings scatter; cell line not stated here;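 note: potency is the fitted concentration of half-maximal effect; % of control where 0% means no effect; nearly all actives have a fitted effect of over 65% in size; a mitochondrial uncoupler was the plate control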
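Cells are seeded, rested 12 hours, then given compound at five concentrations or DMSO for 24 hours. After fixation, blocking and antibody staining, PINK1 amount and mitochondrial localization are scored; CCCP serves as control.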
TRPML1 agonist – agonists of human TRPML1 channel; activation, % (test concentration not listed); TRPML1-expressing cells, Ca2+ dye fluorescence, FDSS; host cell line not named in the record; reference of the full effect not given here; Q9GZU1; AID 624414; 410,000 tested, 0.12% active; in the data active = activation above about 50%; inconclusive = about 30% to 50%; inactive = below about 30%; note: 0% is about no effect; the text of the record puts the active cut at 80%
Target sequence (Q9GZU1 whole entry, looked up): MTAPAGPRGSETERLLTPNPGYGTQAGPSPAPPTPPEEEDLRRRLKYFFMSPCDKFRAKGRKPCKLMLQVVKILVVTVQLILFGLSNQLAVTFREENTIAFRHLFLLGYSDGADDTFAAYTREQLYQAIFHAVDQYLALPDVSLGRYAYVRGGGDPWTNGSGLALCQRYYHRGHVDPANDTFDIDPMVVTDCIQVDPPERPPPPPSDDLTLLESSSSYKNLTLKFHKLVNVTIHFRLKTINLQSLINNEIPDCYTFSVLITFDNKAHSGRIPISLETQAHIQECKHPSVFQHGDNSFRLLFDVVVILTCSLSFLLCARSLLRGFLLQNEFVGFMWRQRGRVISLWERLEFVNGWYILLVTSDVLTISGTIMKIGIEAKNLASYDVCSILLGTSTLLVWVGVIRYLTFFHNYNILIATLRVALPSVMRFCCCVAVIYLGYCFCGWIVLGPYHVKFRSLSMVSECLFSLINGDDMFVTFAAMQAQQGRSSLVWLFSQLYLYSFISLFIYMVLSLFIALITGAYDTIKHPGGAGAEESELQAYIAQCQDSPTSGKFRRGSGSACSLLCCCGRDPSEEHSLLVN
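Cells: TRPML1-DL, 1X Tet inducer, ~16 h at 37 degrees C/5% CO2. Dye: ABD Ca8 no-wash + quencher, 45-90 min RT. Read: 10 s baseline, compound add, 110 s agonist phase; 54-4 EC80 (4uM final), 110 s antagonist phase.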
TRPML1 blocker – human mucolipin-1 channel inhibition; activity change, negative = inhibition, % (concentration not given with the values); 390,000 tested, 0.02% active; TRPML1-inducible cells, Ca2+ dye fluorescence, FDSS; stronger effect = lower value; inhibition of EC80 agonist-evoked calcium signal; in the data active means activity change below about -50%; inconclusive means about -30% to -50%; inactive means above about -30%;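 note: stimulus is agonist 54-4 at its EC80 concentration; % is set by controls: 0 for no effect and ±100 for the full control effect; compound concentration not given in the record; the text of the record puts the active cut at -80%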
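TRPML1-DL cells, Tet-induced overnight (~16 h, 37 °C) at 1,500 cells/well, were loaded with Ca8 no-wash dye plus quencher for 45-90 min at room temperature. Compounds were pinned during FDSS kinetic reading; agonist 54-4 at EC80 (4 uM final) then added.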
Six1-Eya2 inh – inhibitors of human Six1/Eya2 interaction | AID 651725 | 360,000 tested, 0.56% active | Q15475+O00167 | AlphaScreen GST-Six1/His-Eya2 binding, biochemical; stronger effect = lower value; control for the full effect not named in the record | activity change, % (concentration not given with the values); in the data active = activity change below about -65%; inconclusive = about -30% to -65%; inactive = above about -30%; note: % is set by controls: 0 for no effect and ±100 for the full control effect
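GST-Six1 + His-Eya2 (5X stock: 250/500 nM); Tris pH 8.0, 300 mM NaCl, 0.05% BSA, 0.02% Tween 20; GSH donor/Ni acceptor beads; 1 h 37 °C dark; AlphaScreen readout.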
D2 agonist – agonists of human D2 dopamine receptor (beta-arrestin). P14416. DiscoveRx PathHunter D2 beta-arrestin, luminescence, 90 min; 100% = 57 uM dopamine signal. activation, % (no concentration beside the values). 360,000 tested, 0.084% active; in the data active = activation above about 40%; inconclusive = about 15% to 40%; inactive = below about 15%; note: compound concentration not given in the record; the text of the record calls up to 30% inactive
Target sequence (P14416 whole entry, looked up): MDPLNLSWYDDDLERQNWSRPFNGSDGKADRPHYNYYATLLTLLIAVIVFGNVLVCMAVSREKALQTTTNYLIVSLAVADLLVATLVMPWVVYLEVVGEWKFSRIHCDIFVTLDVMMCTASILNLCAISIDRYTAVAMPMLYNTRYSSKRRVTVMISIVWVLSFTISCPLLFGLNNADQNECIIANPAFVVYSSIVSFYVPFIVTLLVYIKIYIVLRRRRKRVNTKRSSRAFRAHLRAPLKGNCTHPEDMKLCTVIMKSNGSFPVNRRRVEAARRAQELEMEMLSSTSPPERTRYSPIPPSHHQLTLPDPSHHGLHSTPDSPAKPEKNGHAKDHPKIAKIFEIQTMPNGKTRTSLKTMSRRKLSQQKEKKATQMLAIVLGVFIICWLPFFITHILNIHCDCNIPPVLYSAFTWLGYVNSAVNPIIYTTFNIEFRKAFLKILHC
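DiscoveRx PathHunter D2 beta-arrestin cells (2,100/well) attached overnight, then compound-stimulated 90 min at 37 C in HBSS/10 mM HEPES/0.1% Tween-20 buffer; beta-galactosidase complementation read by luminescence after 1 h at ambient temperature. Dopamine 57 uM final (EC100) as control.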
D2 potentiator – human D2 receptor positive allosteric modulation. P14416. DiscoveRx D2 beta-arrestin cells, luminescence, 90 min; 100% = 57 uM dopamine signal. potentiation, % (no concentration beside the values). 360,000 tested, 0.23% active. AID 624464; active = potentiation of 50% or more; inconclusive = 30% to 50%; inactive = 30% or less;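 note: compound concentration not given in the record; tested on top of an EC20 dose of dopamine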
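D2 cells co-treated with compound plus 50 nM dopamine (EC20) for 90 min at 37 deg C to detect potentiation. Beta-arrestin recruitment was read as enzyme-fragment luminescence after 1 h at ambient temperature. Full response was set by 57 uM dopamine.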
Numbers without * were called inactive; ? = inconclusive; . = not tested or not shown; [ ] = dose if it differs, or a comment.

SMILES	D2 potentiator	Six1-Eya2 inh	PINK1 expr mod	D2 agonist	TRPML1 blocker	TRPML1 agonist
COc1ccc(C)cc1NC(=O)c1ccc(NS(=O)(=O)c2cccs2)cc1	-5	-21	4.4%	7.8	31	2.0
CSc1nc2ncc(C#N)cn2n1	-5	2	0.2%	-5.2	-5	-0.1
O=C(Nc1ccccc1Cl)c1sc2cccc(Cl)c2c1Cl	.	.	1.7%	.	1	1.1
CCC/C(=N/Nc1ccc(Cl)cc1)c1cnnc(-c2ccccc2)n1	-37	-1	.	-3.5	15	0.2
O=C(C1CCCCC1)N(Cc1ccccc1)c1ccccn1	-8	15	2.2%	2.0	12	-0.6
CC1CCC(NC(=O)COC(=O)CCC(=O)c2ccc(Cl)s2)CC1 (configuration not stated)	-1	-4	1.5%	-2.9	28	0.5
CC[C@H](C)[C@@H](C(=O)NCCCCCCCCCCC(=O)N1CCNCC1)n1cc(CCCCCN)nn1	12	4	-0.5%	-1.1	10	-0.5
CC(C)C(=O)Nc1ccc(C(=O)NNC(=O)C(c2ccccc2)c2ccccc2)cc1	-17	4	17%[38.3 µM]	-1.0	3	-0.2
c1nc2n(n1)C1=C(CCCC1)C1(CCCCC1)N2	-1	1	-0.2%	12	7	-0.3
CCCCn1c(N)c(N(CC(C)C)C(=O)C2CCC2)c(=O)[nH]c1=O	0	0	2.6%	-2.7	-1	-0.3
CCOC(=O)N1CCN(S(=O)(=O)c2ccc(C(=O)Nc3nc4c(s3)CC(C)CC4)cc2)CC1 (configuration not stated)	-16	7	-0.4%	-1.7	2	0.1
O=C(CSc1ncnc2c1cnn2-c1ccc(F)cc1)NC1CCCC1	4	12	1.0%	-1.6	-6	0.3
NS(=O)(=O)c1ccc(CCNC(=O)CCCOc2ccccc2)cc1	0	8	3.2%	-3.6	-9	1.1
O=C(CCOc1ccccc1)Nc1ccnn1C1CCN(Cc2ccccc2)CC1	-29	-2	-0.7%	-2.6	18	-0.2
CCC1Nc2ncnc(N3CCOCC3)c2N(Cc2ccc(C)cc2)C1=O (configuration not stated)	-13	8	0.0%	-3.5	7	0.2
CCN(CC(=O)Nc1ccc2c(c1)OCCO2)C(=O)c1ccc(CS(C)(=O)=O)cc1	-16	3	1.2%	0.1	0	1.2
CC(=O)C1C(c2ccco2)c2c(noc2C)CC1(C)O (configuration not stated)	4	4	-6.1%[38.3 µM]	1.5	1	0.0
C=CCOc1ccc(CNc2nn[nH]n2)cc1OC	1	10	1.1%	0.4	0	-1.0
COc1cc(OC)c(C2=NOC(C(=O)NCc3ccc4c(c3)OCO4)C2)cc1Cl (configuration not stated)	-12	-20	11%[38.3 µM]	0.0	-2	1.5
Cc1ccc(-n2c([C@@H]3C[C@H]3c3ccccc3)n[nH]c2=S)cc1	5	-1	-1.5%	-0.6	-13	1.0
NC(=O)c1c(NC(=O)c2ccc([N+](=O)[O-])o2)sc2c1CCCC2	-5	-13	-1.5%	6.0	3	-0.4
Cc1c(OC(C)C(=O)NCC2CCC(C(=O)O)CC2)ccc2c1oc(=O)c1ccccc12 (configuration not stated)	-17	-3	0.4%	-5.4	.	.
COc1ccc2nc(NC(=O)C(NS(=O)(=O)c3cccc4nsnc34)C(C)C)sc2c1 (configuration not stated)	-11	2	6.8%	-1.6	-3	-1.1
CC1=C(C(=O)N2CCCCCC2)CC(CC(=O)NCCN2CCOCC2)C(=O)N1Cc1ccc(C(C)(C)C)cc1 (configuration not stated)	.	0	-0.7%	.	.	0.0
Cc1cc(/C=N/NC(=O)c2ccsc2)c(C)n1-c1cnccn1	-11	15	0.0%	-2.1	0	-0.2
O=S(=O)(N=C(NS(=O)(=O)c1ccc(Cl)cc1)c1ccccc1)c1ccc(Cl)cc1	-6	8	2.2%	-0.3	2	0.0
Cc1ccc(C2CC(C(F)F)n3ncc(C(=O)Nc4cnn(Cc5ccccc5C)c4)c3N2)cc1 (configuration not stated)	-7	-2	3.4%	-2.2	3	-0.4
CC(C)(C)S(=O)(=O)/C(C#N)=N/Nc1ccc(S(C)(=O)=O)cc1	-7	6	0.2%	-1.8	3	-0.8
CCCN1C(C(=O)c2ccccc2)=C(OC(=O)c2ccc(OC)cc2)c2ccccc2S1(=O)=O	.	.	0.6%	.	25	-0.5
Cc1nc2nc[nH]n2c(=O)c1NS(=O)(=O)c1ccc(F)cc1	1	7	-1.5%	4.1	6	1.1
COc1ccccc1NC(=O)c1cnc(SCC(=O)N2CCCc3ccccc32)n(C)c1=O	.	.	-0.3%	.	-20	1.6
O=C(O)c1ccc(/C=N/NC(=O)c2cc(-c3cccs3)nc3ccccc23)cc1	-12	?	-0.3%	-0.5	-8	0.0
CCN(CC)C(=O)N1CCN(Cc2ccc3c(c2)OCO3)CC1	-4	1	-0.1%	-1.6	25	0.7
CCOC(=O)[C@]12CCCC=C1N(Cc1cccc3ccccc13)C(=O)[C@H](CC(=O)N1CCOCC1)C2	.	1	0.2%	.	.	1.1
CC(=O)N1CCCc2cc(S(=O)(=O)N3CCC(C(=O)NCCC(C)C)CC3)ccc21	.	.	-1.6%	.	-7	0.4
Cc1ccccc1Nc1nnc(SCC(=O)N(C)C2CCS(=O)(=O)C2)s1 (configuration not stated)	-10	2	-1.3%	0.2	-5	-1.3
Cc1cccc(C)c1Nc1nnc(SCC(=O)NC(=O)c2cccn2C)s1	-1	-5	3.8%	0.3	6	3.3
C#CCOCCOCCOCCNc1nc(N2CCN(C(=O)[C@H](CCC(=O)O)n3cc(C(N)CC(C)C)nn3)CC2)nc(N2CCN(C(=O)[C@H](CCC(=O)O)n3cc(C(N)CC(C)C)nn3)CC2)n1 (some centres not stated)	-8	5	0.5%	-2.1	-2	0.3
c1ccc(OCCSc2ncnc3nc[nH]c23)cc1	-11	-2	.	1.0	0	-0.5
COc1ccc(-c2ccc(=O)n(Cc3cccc([N+](=O)[O-])c3)n2)cc1	-14	-10	0.6%	6.7	31	1.3
Cc1nn(-c2ccccc2)c2c1N(CC(=O)N1CCN(c3ccc(Cl)cc3)CC1)C(=O)CS2	.	.	3.0%	.	-15	-1.1
Cn1c(O)c(N=NC(=O)C2COc3ccccc3O2)c2ccccc21 (configuration not stated)	-3	-10	2.1%	1.6	6	2.0
O=C(OCc1cn([C@H]2CN(Cc3cccs3)[C@@H](c3ccccc3)C[C@@H]2O)nn1)c1ccccc1	3	-1	3.9%	-2.0	-13	-0.1
O=C(N[C@H](C(=O)O)c1ccccc1)C1CCC(Cn2cnc3ccccc3c2=O)CC1 (some centres not stated)	3	-18	5.4%	5.6	10	0.8
Cc1nnc(SCC(=O)N(C2CCCCC2)C2CCS(=O)(=O)C2)n1N (configuration not stated)	-2	7	4.6%	-3.0	-14	-0.9

Profiles, looked up by structure. Screens in order: D2 potentiator | Six1-Eya2 inh | PINK1 expr mod | D2 agonist | TRPML1 blocker | TRPML1 agonist
O=C(N[C@H](C(=O)O)c1ccccc1)C1CCC(Cn2cnc3ccccc3c2=O)CC1 (some centres not stated) reads 3 | -18 | 5.4% | 5.6 | 10 | 0.8
O=C(O)c1ccc(/C=N/NC(=O)c2cc(-c3cccs3)nc3ccccc23)cc1 reads -12 | ? | -0.3% | -0.5 | -8 | 0.0
COc1ccc(-c2ccc(=O)n(Cc3cccc([N+](=O)[O-])c3)n2)cc1 reads -14 | -10 | 0.6% | 6.7 | 31 | 1.3
c1ccc(OCCSc2ncnc3nc[nH]c23)cc1 reads -11 | -2 | . | 1.0 | 0 | -0.5

(next part)
SMILES	D2 potentiator	Six1-Eya2 inh	PINK1 expr mod	D2 agonist	TRPML1 blocker	TRPML1 agonist
CC(C)(C)c1ccc(C(=O)NCC(=O)OCC(=O)Nc2ccc3c(c2)OCCO3)cc1	-2	0	0.5%	-6.9	2	0.7
Cc1ccc(C(C(=O)NC(C)(C)C)N(C(=O)CCC(=O)Nc2ccccn2)c2ccccc2F)cc1 (configuration not stated)	-2	-1	1.9%	-2.4	18	-0.5
CC(=O)Nc1ccc(C(=O)NCCCOC(C)C)cc1	-1	4	1.1%	-3.3	?	-0.2
O=C(Nc1ccc2c(c1)OCO2)C1CCN(C(=O)c2ccc(Br)cc2)CC1	-1	12	1.6%	-4.2	10	-0.5
CC1(C)CC(=O)C2(CC3=C(CC(C)(C)CC3=O)O2)C(=O)C1	-8	2	-0.3%	-4.6	2	-0.5
Cc1onc(-c2c(F)cccc2Cl)c1C(=O)N1C=CC(C(F)(F)F)=NCC1	1	-1	-0.1%	-5.0	2	-0.8
Cc1ccc([N+](=O)[O-])c(OCCN2CCNCC2)c1	-4	-3	0.4%	-1.2	-4	0.2
CSc1ccc(Cl)c(C(=O)NNC(=O)c2csc(N3CCOCC3)n2)c1	-5	2	1.3%	-6.9	-2	-0.6
COc1ccc2cc(-c3[nH]ncc3CN3C[C@@H]4CCC[C@H]3C4)ccc2c1	-8	-9	0.4%	-0.6	7	0.7
CCCN(CCC)C(=O)Cn1c(=O)n(-c2ccc(OC)cc2OC)c(=O)c2c3c(sc21)CCC3	.	.	9.9%	.	1	0.1
COCCN(C(=S)Nc1ccc(OC)cc1)C1CCN(C(C)=O)CC1	-14	3	1.5%	-0.2	-6	0.8
O=C(NCc1ccc2c(c1)CCN2C(=O)c1ccc(Cl)cc1)c1cccc(F)c1	.	.	0.5%	.	44	-0.1
COCCCNc1nc2c(c(=O)[nH]c(=O)n2C)n1CC(O)COc1ccc(Cl)cc1 (configuration not stated)	.	.	0.6%	.	-2	-1.1
CCOC(=O)C1=C(C)N(C)C(=O)NC1c1cc2c(cc1[N+](=O)[O-])OCO2 (configuration not stated)	8	-7	0.5%	-1.6	-1	-0.6
NS(=O)(=O)c1cccc(NC(=O)C2CC(=O)N(Cc3ccco3)C2)c1 (configuration not stated)	-8	-4	-1.4%	0.2	9	1.0
